Bioassay records as filed in PubChem.
LANA-H2B inh: blocks KSHV LANA binding to histone H2A/H2B; cell-free LANA-H2A/H2B peptide, fluorescence polarization; inhibition, % (concentration not given with the values); 320,000 tested, 0.6% active; in the data active = inhibition mostly above about 10%, no sharp cut-off; inactive = mostly below about 6.7%;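 note: stock transfer was 7.5 nL into about 10 µL; 0% = median of vehicle wells and 100% = median of positive control wells; one replicate is shown; the record names a cut of 25% in any replicate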
Target sequence (Q9QR71 whole entry, looked up): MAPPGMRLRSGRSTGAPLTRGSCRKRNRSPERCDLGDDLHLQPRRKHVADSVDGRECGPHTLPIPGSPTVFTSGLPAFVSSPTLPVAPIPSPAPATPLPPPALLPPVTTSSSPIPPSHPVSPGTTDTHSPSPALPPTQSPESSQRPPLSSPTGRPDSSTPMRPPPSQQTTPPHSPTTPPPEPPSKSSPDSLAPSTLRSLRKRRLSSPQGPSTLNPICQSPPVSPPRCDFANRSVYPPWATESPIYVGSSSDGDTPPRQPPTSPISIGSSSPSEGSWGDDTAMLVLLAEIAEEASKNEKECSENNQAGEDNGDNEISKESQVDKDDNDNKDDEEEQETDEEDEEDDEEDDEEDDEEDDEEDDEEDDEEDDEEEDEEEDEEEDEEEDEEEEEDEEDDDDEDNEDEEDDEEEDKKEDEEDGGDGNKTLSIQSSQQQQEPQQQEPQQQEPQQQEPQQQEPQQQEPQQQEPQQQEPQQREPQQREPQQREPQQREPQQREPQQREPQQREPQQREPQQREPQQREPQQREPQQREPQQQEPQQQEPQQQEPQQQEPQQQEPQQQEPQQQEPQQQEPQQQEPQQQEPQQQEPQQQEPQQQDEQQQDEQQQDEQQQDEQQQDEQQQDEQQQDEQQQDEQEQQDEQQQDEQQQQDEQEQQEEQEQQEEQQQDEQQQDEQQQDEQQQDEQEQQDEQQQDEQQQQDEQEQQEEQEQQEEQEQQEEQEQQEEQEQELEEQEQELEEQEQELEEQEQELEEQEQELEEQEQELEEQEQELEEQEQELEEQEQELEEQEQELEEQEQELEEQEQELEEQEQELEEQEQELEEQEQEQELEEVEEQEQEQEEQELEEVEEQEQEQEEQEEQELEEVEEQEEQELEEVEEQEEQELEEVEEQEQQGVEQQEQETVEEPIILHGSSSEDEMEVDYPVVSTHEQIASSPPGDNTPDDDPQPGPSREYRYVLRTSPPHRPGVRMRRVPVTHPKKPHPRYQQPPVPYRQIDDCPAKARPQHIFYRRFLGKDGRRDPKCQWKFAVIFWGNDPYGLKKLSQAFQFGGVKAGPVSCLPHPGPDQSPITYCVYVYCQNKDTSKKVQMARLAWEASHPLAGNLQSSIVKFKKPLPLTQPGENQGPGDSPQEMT
Vif A3G: HIV-1 Vif–A3G interaction blockers – biochemical, TR-FRET, GST-Vif 1-94, biotin-A3G peptide, dose response retest, primary screen (AID 1117319) | 260,000 tested, 0.57% active | inhibition, %, or IC50 in µM where a hit was titrated | TR-FRET GST-Vif / biotin-A3G peptide binding; higher % means a stronger effect; test concentration not given here; strong numbers were not always called active;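 active = above the screen mean plus three standard deviations and confirmed in dose response; inconclusive = results disagree or hit not tested in dose response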;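 note: Vif residues 1-94 fused to GST binding biotinylated APOBEC3G peptide 110-148; 0% = full assay without inhibitor and 100% = GST in place of GST-Vif; retest series ran down from 100 µM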
Calb FLC: C. albicans growth modulation with fluconazole; C. albicans CaCi-2 (fluconazole-resistant clinical isolate) + fluconazole, Alamar Blue growth, 48 h; AID 1979; growth inhibition, % (no concentration beside the values); 300,000 tested, 0.57% active;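 active = most replicates above 75%; inconclusive = exactly half above 75%; inactive = most below 75%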;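 note: all wells also contain fluconazole at 8 µg/ml as a sub-toxic cotreatment; 0% = median of DMSO wells and 100% = median of geldanamycin control wells; wells of about 8 µL received 7.5 nL stock; the first replicate is given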
RanGTP-Impb inh: disruptors of Ran-importin-beta complex formation – biochemical, FRET, CFP-Ran, YFP-importin-beta, homogeneous, primary screen | cell-free CFP-Ran/YFP-importin-beta FRET ratio | 300,000 tested, 1.1% active | inhibition, % (test concentration not listed);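 active = most replicates above 15%; inconclusive = exactly half above 15%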;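 note: 0% = DMSO wells and 100% = Ran loaded with GDP instead of GTP; wells of about 40 µL received 100 nL stock; the first replicate is given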
Beta2AR agonist: agonists of human beta-2 adrenergic receptor inducing internalization | response, % (concentration not given with the values) | Am2.2-beta2AR cells, FAP receptor internalization, flow cytometry; reference of the scale not given here | 340,000 tested, 0.43% active | P07550;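 active = response above a set limit, near 3 SD of response in nonfluorescent compounds, cut at about 42% in these data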;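 note: stock transfer was 100 nL into about 11 µL; a reference agonist was the positive control; negative values mostly stem from fluorescent compounds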
HNF4A DNA FP: change in binding of human HNF4 alpha to DNA; HNF4a-FITC DNA binding, fluorescence polarization, 1 h; activity change, % at 10 µM; 360,000 tested, 0.3% active; in the data active = activity change above about 30%, passing the limit was not always enough;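 note: controls were the assay level and a saturating level of protein; the project sought stronger binding though the title names inhibitors; some compounds called inactive have numbers as strong as hits; positive values seem to mean higher polarization but the record does not say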
ALR inh: blocks human ALR sulfhydryl oxidase activity. AID 485317. purified ALR, DTT oxidation, H2O2 HRP-luminol luminescence. 290,000 tested, 3.8% active. inhibition, % (test concentration not listed);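 active = mean and each replicate at 75% or more; inconclusive = only one of the two met; inactive = neither met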;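 note: stock transfer was 7.5 nL into about 7.5 µL; 0% = neutral wells and 100% = wells with inactivated enzyme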
* marks the source's active call; other numbers are inactive results; ? = inconclusive; . = not tested or not shown; & = joins results of further samples.

SMILES	LANA-H2B inh	Vif A3G	Calb FLC	RanGTP-Impb inh	Beta2AR agonist	HNF4A DNA FP	ALR inh
CC1CCN(C(=O)c2ccc3c(c2)NC(=O)CN3)CC1	-12	.	-6	0.9	.	.	0
O=S(=O)(Nc1cccnc1)c1ccc(F)cc1	-7.9	-2%	-1	-1.4	-2	2.3	-8
O=C(CSc1nnc(NC(=O)CN2CCOCC2)s1)Nc1ccccc1	0.0	-1%	4	-3.1	0	-1.4	1
O=C(NCC1CCCO1)C1CCN(C2CCN(C(=O)CC3CCCC3)CC2)CC1 (stereo not given)	-3.1	12%	9	?	-6	-11	-5
Cc1cccc2cc3c(N)c(C#N)sc3nc12	-6.9	0%	23	-0.7	3	1.1	11
Cc1ccc(S(=O)(=O)N(C)C)cc1NC(=O)C1CCCCN1S(=O)(=O)c1ccccc1 (stereo not given)	4.2	1%	.	.	-3	-0.2	1
COc1ccc(-c2cc(C(F)(F)F)nc(N3CCCCC3)n2)cc1OC	-3.5	-4%	5	-3.2	7	-0.4	-3
CCc1ccc(C(=O)c2ccccc2C(=O)O)s1	1.4	0%	-2	4.4	-12	5.0	-2
COc1ccc(OC)c(N=Cc2c(O)c3ccccc3oc2=O)c1	16	.	27	-1.8	4	3.5	-19
Cc1nc2c(c(=O)n1CCC(C)C)c1nc3ccccc3nc1n2CC1CCCO1 (stereo not given)	2.0	.	-3	-2.3	-8	1.4	2
COc1cccc(OCC(=O)NN=C2c3ccccc3-c3ccccc32)c1	0.1	0%	-7	-0.4	2	-4.0	-10
CCCSc1nc(N)c(C#N)c(-c2ccc(C)cc2)c1C#N	2.6	-92%	-5	-0.9	-8	0.5	-4
COc1ccc(N(CC(=O)Nc2cccnc2)S(=O)(=O)c2ccccc2)cc1Cl	-3.5	.	3	0.6	-8	0.8	5
CN(C)S(=O)(=O)c1cccc(NS(=O)(=O)c2ccc(Cl)s2)c1	2.7	7%	19	2.8	1	-0.6	-3
CN(CCOc1ccc(Cl)cc1)C(=O)C1CCN(C(=O)c2ccc(F)cc2)CC1	0.8	1%	2	3.3	3	0.3	-9
Fc1ccccc1CNc1ncnc2sccc12	4.0	.	0	5.4	-1	4.8	0
COc1ccc([N+](=O)[O-])cc1NC(=O)CSc1nc(C)c(C)c(C)n1	-1.7	1%	-2	-3.1	-4	0.2	.
C#CCSc1ncc(-c2ccccc2)cn1	2.3	6%	-8	-0.2	-4	1.0	-6
CNC(=S)NNC(=O)c1sccc1OCc1cccc(C(F)(F)F)c1	-0.5	3%	5	?	0	3.6	-6
Cc1cc(C)cc(NC(=O)CSc2nnc(CN3CCOCC3)n2C)c1	3.7	4%	-3	-4.4	7	5.6	-67
CCCC(=O)N1CCN(c2ccc(NC(=O)c3ccc(OCC)c([N+](=O)[O-])c3)cc2)CC1	0.2	9%	-23	3.2	2	-1.6	0
Cc1ccc(S(=O)(=O)Nc2ccc3c(c2)n(C)c(=O)n3C)cc1	-2.2	.	0	?	-3	-2.1	2
CCOc1ccc(NC(=O)Nc2ccccc2SC)cc1	-0.7	-4%	-4	-1.7	8	1.5	-1
COc1cc(OC)cc(C(=O)N[C@H](C(=O)OCC(=O)N2CCc3ccccc32)C(C)C)c1	1.2	-12%	10	-0.6	-4	1.4	-1
O=c1cc(CSc2nnc(COc3ccccc3)n2-c2ccccc2)c2ccccc2[nH]1	-1.4	31%	44	-2.1	-10	-1.5	-10
CC(C)OP(=O)(OC(C)C)/C(C=O)=N\Nc1ccc([N+](=O)[O-])cc1	-1.2	12%	-10	1.1	18	-0.2	6
CSc1ccc(C2NC(=O)c3c(sc4c3CCN(C)C4)N2)cc1 (stereo not given)	-5.1	-2%	-4	112*	-23	54	.
Cn1cccc1Cc1nnc(SCC(=O)Nc2ccc3c(c2)OCCO3)n1-c1ccc(F)cc1	2.2	23%&-2%	-8	-1.7	-1	4.1	67
CC12CCC(=O)N1C(C(=O)Nc1cccc3ccccc13)CS2 (stereo not given)	-2.4	.	10	0.6	-3	3.2	-34
O=C(NCCc1ccccn1)c1nc(Cn2cc([N+](=O)[O-])cn2)no1	8.2	4%	-3	-1.0	3	-0.2	-5
CCOc1ccc(C(=O)C[n+]2ccc(C(=O)NCc3ccccc3)cc2)cc1	-1.6	.	15	-0.6	-2	-1.9	.
Cn1/c(=N\NC(=O)c2ccccc2Cl)sc2ccccc21	3.2	-4%	13	4.5	0	-1.0	35
O=C(NC1CCN(Cc2ccccc2)CC1)C1CCCN(c2nnc(-n3cccc3)s2)C1 (stereo not given)	5.7	-7%	-4	0.7	-7	1.9	8
CC12CCC3c4ccc(OCC(=O)O)cc4CCC3C1CCC2=O (stereo not given)	.	-9%	.	.	-1	1.8	.
Cc1ccc(-n2c(C)c3c(C)nnc(C)c3c2C)cc1C	4.9	17%	-1	?	26	8.1	49
CC(=O)OCC(=O)C1=CCC2C3CCC4=CC(=O)C=CC4(C)C3(F)C(OC(C)=O)CC12C (stereo not given)	-10	?	?	-2.4	6	-0.9	.
O=C1c2[nH]nc(-c3ccccc3O)c2C(c2cccc(O)c2)N1Cc1ccco1 (stereo not given)	-6.2	3%	-2	4.1	9	0.6	28
CCO/N=C(\C)c1c(O)cc(C(C)C)n(-c2ccccc2)c1=O	-5.8	.	-3	1.2	-8	4.4	-1
COc1ccc2[nH]c(C(=O)NCCCn3ccnc3)cc2c1	4.0	.	5	-0.4	12	5.3	-39
COc1ccc(NCc2ccc([N+](=O)[O-])s2)c(OC)c1	2.0	-8%	.	.	9	1.0	98*
Cc1cccc(C)c1NC(=S)NC(C)CCc1ccccc1 (stereo not given)	-2.7	9%	13	2.6	7	-2.0	-1
COCC(=O)N(C)C1(c2nnnn2CCOC(=O)Nc2ccc(Cl)cc2)CCCCC1	-0.6	.	1	2.1	-5	1.2	3
COc1ccc(C2=NOC(c3nnc(-c4ccccc4)o3)C2)cc1 (stereo not given)	8.5	.	1	-1.5	7	-2.8	0
NC(=O)c1nsc(C(=O)N(Cc2cccnc2)C(C(=O)NC2CCCCC2)c2ccc(F)cc2)c1N (stereo not given)	6.3	-2%	10	0.8	-1	-2.8	.
CCOC(=O)c1c(S(=O)(=O)Nc2ccc(F)cc2Cl)c(C)n(C)c1C	-3.6	1%	-13	-1.7	-4	1.1	4

A second format for some results above:
Results follow in this order: LANA-H2B inh | Vif A3G | Calb FLC | RanGTP-Impb inh | Beta2AR agonist | HNF4A DNA FP | ALR inh
> Cc1ccc(-n2c(C)c3c(C)nnc(C)c3c2C)cc1C
 : 4.9 | 17% | -1 | ? | 26 | 8.1 | 49
> CC(=O)OCC(=O)C1=CCC2C3CCC4=CC(=O)C=CC4(C)C3(F)C(OC(C)=O)CC12C (stereo not given)
 : -10 | ? | ? | -2.4 | 6 | -0.9 | .
> O=C1c2[nH]nc(-c3ccccc3O)c2C(c2cccc(O)c2)N1Cc1ccco1 (stereo not given)
 : -6.2 | 3% | -2 | 4.1 | 9 | 0.6 | 28
> CCO/N=C(\C)c1c(O)cc(C(C)C)n(-c2ccccc2)c1=O
 : -5.8 | . | -3 | 1.2 | -8 | 4.4 | -1

(next part)
SMILES	LANA-H2B inh	Vif A3G	Calb FLC	RanGTP-Impb inh	Beta2AR agonist	HNF4A DNA FP	ALR inh
Cc1cccc2cc(C(c3nnnn3C(C)(C)C)N3CCN(C(=O)c4ccco4)CC3)c(=O)[nH]c12 (stereo not given)	-3.7	8%	-3	3.3	-19	-3.6	-5
Cc1cc2ncn(S(=O)(=O)c3ccc(S(=O)(=O)N4CCOCC4)cc3)c2cc1C	-0.1	25%	-20	5.9	2	1.6	0
O=C(NCCCCNC(=O)c1cccs1)c1cccs1	-1.1	7%	1	-0.4	-7	1.9	9
CN(CC(=O)Nc1ccc(F)cc1)C(=O)C1Cc2ccccc2CN1S(C)(=O)=O (stereo not given)	.	5%	.	.	-5	1.2	.
O=C(NNS(=O)(=O)c1ccccc1)c1cnn(-c2ccc(Cl)cc2)c1C(F)(F)F	-3.2	1%	1	-1.5	-2	5.4	23
Oc1[nH]c2ccccc2c1N=Nc1ccc(C(F)(F)F)cn1	0.0	-1%	-8	-5.0	6	-0.1	2
CCc1nnc(NC(=O)c2oc3ccc(Br)cc3c2C)s1	-0.8	-16%	.	.	-10	1.9	-3
COc1ccc(C)cc1NC(=S)N1CC(C)OC(C)C1 (stereo not given)	2.3	-4%	2	0.7	-1	0.8	-12
C#CCNC(=O)C1=C[C@H](C2CC2)C[C@H](OCCCCO)O1	-4.2	11%	-5	2.1	-1	-0.4	-17
COCCCNC(=O)/C(C#N)=C/c1c(N2CCN(c3ccccc3)CC2)nc2c(C)cccn2c1=O	-3.2	-6%	3	32*	8	-1.9	2
Cn1c(=O)c2c(nc3n2CCCN3CCc2ccccc2)n(C)c1=O	2.8	.	16	0.7	4	-4.0	22
COc1ccc(CN2CCC(C(=O)N(C)CCc3ccc(OC)c(OC)c3)CC2)c(OC)c1	1.5	-1%	6	1.2	-11	-1.6	-27
CCN(CC)S(=O)(=O)c1ccc(NC(=O)COC(=O)c2ccc(Br)o2)cc1	-0.2	21%	-2	-2.1	6	-3.0	-6
O=C1SCCC1NC(=O)C(c1ccccc1)c1ccccc1 (stereo not given)	1.9	-4%	5	8.1	-3	-1.8	5
CCn1c(C)nc2cc(C(=O)NNC(=S)Nc3ccccc3)ccc21	-6.5	?	20	4.5	-1	2.2	56
COc1ccc(S(=O)(=O)n2nc(OC(=O)c3cccs3)cc2N)cc1	4.6	25%	1	?	-11	-4.3	75
CC1CCC(NC(=O)C2CCC(CNS(=O)(=O)c3ccccc3)CC2)CC1 (stereo not given)	4.8	4%	-5	-0.2	7	6.5	-23
CC1=C(C(=O)OC(C)C)[C@@H](c2ccc(C)o2)NC(=O)N1	0.5	6%	-9	1.1	-2	2.0	4
CC1CCN(S(=O)(=O)c2ccc(Cl)cc2Br)CC1	-1.0	12%	4	-3.9	-13	1.0	-7
Cc1cccc(N2CCN(Cc3nc(-c4ccccc4Cl)oc3C)CC2)n1	-1.8	-7%	-13	5.1	2	-0.7	1
Fc1ccccc1-c1ccc(/C=N/Nc2nc3ccccc3[nH]2)o1	0.1	4%	.	.	0	2.0	22
COc1ccc(CCNC(=O)[C@@H]2C[C@H]2c2ccccc2)cc1OC	-2.4	-3%	-5	0.3	-1	2.9	-4
O=C(NC1CCCCC1)C1CCN(c2nnnn2-c2ccccc2)CC1	1.6	3%	16	1.0	-4	1.9	-15
COc1cccc(-c2nc(CS(=O)CC(=O)O)c(C)o2)c1 (stereo not given)	3.4	1%	-9	0.3	4	-0.9	99*
CC(C)(c1ccc(O)c([N+](=O)[O-])c1)c1ccc(O)c([N+](=O)[O-])c1	.	5%	.	.	11	-1.8	.
COc1ccccc1C1CC(=O)Oc2ccc(C(C)(C)C)cc21 (stereo not given)	.	-1%	.	.	6	-3.7	.
O=C(Nc1ccccc1Sc1ccccc1)C1CCCO1 (stereo not given)	0.3	-5%	17	4.8	-4	-3.8	2
O=C(COc1ccccc1F)NC1CC1	-3.8	-8%	0	-1.1	-2	1.3	-1
CCS(=O)(=O)N1CCC(C(=O)Oc2ccccc2Br)CC1	-1.2	.	-3	-0.6	1	3.9	1
CCN(CC(=O)NCc1cccs1)C(=O)c1ccc(S(=O)(=O)Nc2ccccc2C)cc1	4.3	-1%	-3	-1.4	-2	-0.3	-6
CC(C)(C)C(=O)/C(=C/c1ccc(Cl)cc1)n1cncn1	-0.4	3%	-1	0.4	5	2.6	1
COCCCNc1nc2c(c(=O)n(Cc3ccc(Cl)cc3)c(=O)n2C)n1C	-4.0	0%	-7	5.9	3	0.0	.
CCCn1c(SCC(=O)NCc2ccccc2Cl)n[nH]c1=O	-4.9	-9%	-17	1.7	-4	-0.2	-1
CC1(C)Cc2c(c(-c3ccccc3)nc3[nH][nH]c(=O)c23)CO1	15	-2%	7	5.2	20	-2.7	99*
